Screening results as filed in PubChem BioAssay.
MT1-MMP act inh: blockers of MT1-MMP proenzyme processing, primary screen, HT1080 RFP-PRO-GFP cells, GFP/RFP fluorescence | hit rate 0.061% among 360,000 | GFP/RFP ratio fluorescence, overnight; percent of plate control window, DMSO zero | GFP/RFP ratio change, % at 20 µM;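 active means GFP/RFP ratio change of at least 30% with cell ATP level not reduced by more than half and red fluorescence within 50% of control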; further: strong numbers were not always called active
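Test system: HT1080 cells expressing an RFP-PRO-GFP fluorescent reporter construct / Compound dosing: single-point 20 µM compound, 1% DMSO / Schedule: cells overnight before dosing, compound overnight, 37 °C, 5% CO2 / Evaluation: GFP/RFP fluorescence ratio / Control set: DMSO and RFP-L50D-GFP cell wells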
Yeast UUG start: modulators of yeast start codon fidelity, primary screen, whole organism, S. cerevisiae, single point, plate reader | hit rate 0.13% among 350,000 | S. cerevisiae UUG-firefly luciferase reporter, luminescence/redox ratio | activity score, % at 18.7 µM;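 active means replicate mean at a twofold rise or more, about +100% in these data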;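 further: firefly luciferase made from a UUG start codon reports start codon fidelity; reporter light over untreated wells divided by growth signal over untreated wells; some hits fall short of that in this replicate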
Env fusion inh: inhibitors of HIV-1 Env-driven cell-cell fusion, primary screen, HeLa-JRFL effector, CEM21 target cells, luciferase; inhibition, % at 12.3 µM; hit rate 1.1% among 360,000;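 active means mean replicate inhibition score of at least 50 and every replicate individually at or above 50; inconclusive means only one of the two criteria met; inactive means mean below 50 and not all replicates reaching 50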;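 further: 0% = plate neutral controls and 100% = maraviroc near 300 nM; one replicate is shown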
eIF4H FP inh: human eIF4H binding inhibitors, primary screen, translation initiation inhibitor project, biochemical, uHTS, fluorescence polarization; Eukaryotic translation initiation factor 4H (Homo sapiens), Q15056; eIF4H fluorescence polarization binding assay; inhibition, % at 35 µM; hit rate 0.94% among 290,000;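 active means 50% or more with normal probe brightness, or confirmed in later tests; inconclusive means above 50% with abnormal brightness, or retests that disagree; inactive means below 50% or failed in later tests; about a fifth of its hits are not listed in these tables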;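 further: calls also rest on retests at 20 µM and on dose response follow-up; 0% = protein and probe with vehicle and 100% = probe without protein; strong numbers were not always called active; many hits fall short of the cut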
CSC inhib: cancer stem cell viability inhibitors, primary screen, luminescence; cancer stem cell-like cells viability; inhibition, % at 7.5 µM; hit rate 1.1% among 300,000; AID 2717, 2010;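 active means mean at 75% or more and at least half the replicates too; inconclusive means mean and replicates disagree; tested in HMLE shEcad cells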;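 further: 0% = median of negative and 100% = median of positive control wells; the first replicate is given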
PABP polyA inh: PABP poly(A) RNA binding inhibitors, primary screen, biochemical, fluorescence polarization, uHTS; hit rate 1% among 290,000; inhibition, % at 35 µM; AID 2014, 2009;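 active means 50% or more with normal probe brightness, or confirmed in later tests; inconclusive means above 50% with abnormal brightness, or retests that disagree; inactive means below 50% or failed in later tests; about a fifth of its hits are not listed in these tables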;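 further: calls also rest on retests at 20 µM and on dose response follow-up; controls were probe without protein and protein plus probe with vehicle; some compounds called inactive have numbers as strong as hits; many hits fall short of the cut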
Target sequence (P11940 whole entry, looked up): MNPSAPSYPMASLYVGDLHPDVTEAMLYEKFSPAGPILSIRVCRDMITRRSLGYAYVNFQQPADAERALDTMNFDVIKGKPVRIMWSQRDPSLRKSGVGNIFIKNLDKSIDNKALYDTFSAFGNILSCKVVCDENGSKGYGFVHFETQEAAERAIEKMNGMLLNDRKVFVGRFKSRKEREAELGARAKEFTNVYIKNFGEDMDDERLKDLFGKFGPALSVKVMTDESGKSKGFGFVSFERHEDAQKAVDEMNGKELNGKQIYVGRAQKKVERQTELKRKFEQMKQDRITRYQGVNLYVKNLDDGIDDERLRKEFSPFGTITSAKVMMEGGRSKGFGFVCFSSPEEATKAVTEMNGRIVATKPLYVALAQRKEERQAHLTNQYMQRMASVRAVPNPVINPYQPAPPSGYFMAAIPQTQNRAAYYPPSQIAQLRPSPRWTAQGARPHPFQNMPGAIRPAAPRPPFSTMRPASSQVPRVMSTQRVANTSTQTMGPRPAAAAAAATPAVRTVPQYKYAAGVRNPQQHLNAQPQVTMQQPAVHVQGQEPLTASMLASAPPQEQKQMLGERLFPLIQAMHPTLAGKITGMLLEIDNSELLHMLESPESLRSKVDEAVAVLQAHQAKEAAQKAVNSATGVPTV
Rce1 inhib: yeast Rce1p protease inhibitors, primary screen, biochemical, fluorescence, cell-free homogeneous | hit rate 0.27% among 290,000 | calls only | AID 2563, 2010 | CAAX prenyl protease 2 (Saccharomyces cerevisiae (strain ATCC 204508 / S288c)), Q03530 | yeast membranes, quenched prenylated peptide cleavage fluorescence;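 active means fall in fluorescence gain of 50% or more versus controls, with final raw signal at or below 3038400; inconclusive means same 50% fall but final raw signal above 3038400; inactive means fall in fluorescence gain under 50%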;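 further: plate controls were neutral control wells for no effect and wells lacking membranes for full effect; tested at 10 µM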
Target sequence (Q03530 whole entry, looked up): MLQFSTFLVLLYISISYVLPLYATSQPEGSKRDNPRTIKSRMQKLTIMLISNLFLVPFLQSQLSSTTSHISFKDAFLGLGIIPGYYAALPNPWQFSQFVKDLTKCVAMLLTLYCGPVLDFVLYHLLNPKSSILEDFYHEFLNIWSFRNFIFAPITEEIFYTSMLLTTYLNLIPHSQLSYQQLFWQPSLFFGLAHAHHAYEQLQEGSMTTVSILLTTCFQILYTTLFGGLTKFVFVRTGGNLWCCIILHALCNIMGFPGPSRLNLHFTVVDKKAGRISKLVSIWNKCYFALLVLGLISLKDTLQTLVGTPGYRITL
eIF4H FP inh retest: recorded beside eIF4H FP inh, whose call it bears; inhibition, %; compound at 20 µM; confirmation average;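 mean of two retest wells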
PABP polyA inh retest: also measured in PABP polyA inh; calls as there; inhibition, %; compound at 20 µM; confirmation repeats;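 mean of two retest wells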
MT1-MMP act inh RFP: second read-out of MT1-MMP act inh, no call of its own (marks repeat the call); RFP signal change, %; measured here: RFP expression control read;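 0 = vehicle wells; hits needed this value within 50% of zero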
The depositor's hits bear a star; i = inactive; ? = inconclusive; . = not tested or not shown; & = joins results of further samples. Some of the compounds tested, so the mix of outcomes need not match the whole.

SMILES | MT1-MMP act inh | MT1-MMP act inh RFP | Yeast UUG start | Env fusion inh | eIF4H FP inh | CSC inhib | PABP polyA inh | Rce1 inhib | others
CC(NC(=O)C1CCN(S(=O)(=O)c2cccc3cccnc23)CC1)c1ccccc1 (stereo not given) | 0 | -1 | 10 | -11 | . | -5 | . | i
O=[N+]([O-])c1ccc2nc(SCc3ccccc3Cl)sc2c1 | -5 | -3 | -11 | . | -1 | 15 | -10 | i
CC(=O)NCCCc1nc2ccccc2n1Cc1cc(C)ccc1C | -4 | 1 | . | 1 | -4 | . | -2 | i
COc1ccccc1CNC(=O)CN1CCC(n2cnc3cc(F)ccc32)CC1 | 1 | -3 | . | 9 | 0 | -8 | 7 | i
Cc1nn(C)c(C)c1CNC(=O)Nc1cccc(Cl)c1 | 0 | 1 | . | -12 | 2 | 0 | -4 | i
Fc1ccc(NC(=S)Nc2cccc3cnccc23)cc1 | -5 | 0 | . | -20 | 56 | 36 | -4 | i | eIF4H FP inh retest=31;PABP polyA inh retest=22
Cc1ccc(C(NC(=O)N2CCN(C)CC2)C(Cl)Cl)cc1F (stereo not given) | -1 | 4 | -4 | 14 | 4 | 10 | 15 | i
O=C(N/N=C/c1ccc(Br)s1)c1cccc([N+](=O)[O-])c1 | 6 | 6 | . | 18 | -4 | 6 | 1 | i
CC(Oc1ccccc1Cl)C(=O)N1CCOCC1 (stereo not given) | -4 | 3 | . | 1 | 11 | -5 | 10 | i
CCC1CCCCN1CCCNC(=O)c1ccc(CS(=O)(=O)c2ccc(Br)cc2)o1 (stereo not given) | 0 | 5 | -10 | 6 | 2 | -8 | 4 | i
CCc1cc(C(=O)N=Nc2c(O)[nH]c3c(Br)cc(Br)cc23)c2ccccc2n1 | -11 | -3 | . | 10 | -9 | 28 | 1 | i
Cc1c(NC(=S)Nc2ccccc2)c(=O)n(-c2ccccc2)n1C | 6 | 6 | . | -3 | -2 | . | -12 | i
CC(C)C(=O)N1c2ccccc2NC2=C(C(=O)CCC2)C1c1ccc(N(C)C)cc1 (stereo not given) | 4 | 6 | 2 | -5 | 4 | -13 | 3 | i
CCN1CCN(C(c2ccc(F)cc2)c2nnnn2Cc2ccc3c(c2)OCO3)CC1 (stereo not given) | -3 | 2 | -11 | -11 | 3 | -12 | -6 | i
O=[N+]([O-])c1ccc2ncnc(Nc3ccc4c(c3)OCCO4)c2c1 | -13 | -7 | . | 18 | 27 | 6 | 4 | i
CCOC(=O)C1CCN(c2cc3c(cc2NC(=O)c2cc(OC)ccc2Br)n(C)c(=O)n3C)CC1 | 6 | -4 | -11 | 9 | 14 | 3 | 15 | i
CCC(=O)N1CCc2cc(Br)cc(S(=O)(=O)CCC(=O)NCCc3ccccc3)c21 | 3 | 2 | -15 | 8 | 5 | . | -3 | i
Cc1nc2c(-c3ccccc3)c(C)nn2c(C)c1CCC(=O)NC(C)CCc1ccco1 (stereo not given) | 5 | -1 | -10 | 14 | -17 | -10 | -2 | i
NC(=O)c1cc(-c2csc(NCCc3ccccc3)n2)ccc1O | 0 | -8 | -8 | 5 | -6 | -4 | 15 | .
O=S(=O)(Nc1cccc(-c2ccc3nncn3n2)c1)c1cc(F)ccc1F | -1 | 6 | . | -35 | . | . | . | i
C=CCc1cccc(/C=N/NC(=O)CCC(=O)Nc2ccc(C)cc2)c1O | -1 | 1 | -1 | -13 | -8 | 9 | -16 | i
O=C(Cn1cnc([N+](=O)[O-])n1)N/N=C/c1cccc(Cl)c1 | -1 | 0 | . | 4 | 1 | -8 | 6 | i
COc1ccc(OCCC(=O)Nc2ccccc2)cc1 | 0 | -1 | -13 | -17 | 0 | -8 | 2 | i
CC(=O)N1CCN(c2nc3ccc(Br)cc3s2)CC1 | 8 | -13 | -20 | -56 | 1 | 6 | -12 | i
O=C(Cc1ccccc1)c1ccc(O)cc1 | 1 | 0 | -2 | 8 | . | . | . | .
COc1cccc(-c2nnc(-c3ccccc3[N+](=O)[O-])o2)c1 | -3 | -3 | -9 | -52 | 6 | -4 | -5 | i
CC1CCN(C(=O)CSc2nnc(N)s2)CC1 | -2 | 1 | -16 | ? | 89 | -11 | 4 | i | eIF4H FP inh retest=-7;PABP polyA inh retest=10
O=C(Nc1ccccc1C(=O)OCC(=O)N1CCc2ccccc2C1)c1ccco1 | 3 | 5 | -4 | . | -10 | -1 | -8 | i
Cc1ccsc1CN(C)CC(=O)Nc1ccccc1C(=O)NC1CC1 | -3 | -1 | . | -3 | . | -14 | . | .
O=C(CN1CCSC1=NCc1ccccc1)c1ccc(Cl)cc1 | 1 | -2 | . | 2 | -12 | . | -7 | i
CCCCC1=CC2=CC(=O)C(C)(OC(=O)CC)C(=O)C2=CN1c1cccc(C#N)c1 (stereo not given) | -11 | 7 | -19 | 6 | . | 3 | . | i
CC1CCOC2(O1)C(=O)N(CN1CCN(c3ccccc3F)CC1)c1ccccc12 (stereo not given) | 0 | 3 | -9 | -23 | 13 | -8 | -1 | i
O=C1C(Cl)=C(Nc2ccc3cn[nH]c3c2)C(=O)c2ccccc21 | -17 | -12 | -17 | -60 | 2 | 109* | 18 | i
COc1ccc(CNC(=O)CCNC(=O)C2CCN(S(=O)(=O)c3ccc(OC)cc3)CC2)cc1 | -2 | 0 | 11 | -24 | . | . | . | .
CCOCC(=O)Nc1cc([N+](=O)[O-])ccc1C | -1 | 2 | . | -17 | 0 | -11 | 2 | i
CC(N=C1NS(=O)(=O)c2ccccc21)C(=O)NCc1ccc(F)cc1 (stereo not given) | -1 | 2 | . | -1 | . | -13 | . | .
COc1ccc(-c2ccc(C(=O)NCc3ccc(F)c(F)c3)c3occc23)c(C)c1 | -3 | -18 | -29 | 12 | . | . | . | .
O=C(/C=C/c1cccs1)N1CCN(c2ccc(O)cc2)CC1 | -6 | -3 | . | 26 | -1 | 8 | 49 | i
O=C(NCCc1ccccc1)C(=O)NCC1OCCN1S(=O)(=O)c1ccc(Br)cc1 (stereo not given) | 3 | -11 | -7 | 18 | -4 | -2 | 9 | i
CCOC(=O)c1[nH]c(C)c(CN(CCc2ccc(OC)c(OC)c2)C(=O)CCCC(=O)O)c1C | -2 | 6 | 9 | . | -7 | 24 | 6 | i
O=C(NNc1cc(C(F)(F)F)nc2ccccc12)Nc1cccc(Cl)c1 | 5 | -13 | -13 | 12 | 3 | 0 | 6 | i
Cc1ccnc(NC(c2ccccc2O)c2oc(CO)cc(=O)c2O)c1 (stereo not given) | 5 | 8 | . | 0 | 14 | -19 | 6 | i
O=C(COc1ccc(Cl)cc1Br)NNC(=O)C(=O)N1CCCCC1 | 1 | 10 | . | . | 6 | -9 | -5 | i
Cn1ccc(C(=O)Nc2sc3c(c2C(N)=O)CCCCC3)n1 | -4 | 4 | -29 | -65 | 17 | -13 | 1 | .
COc1cc(C(=O)Nc2ccc(C(=O)NCC3CCCO3)cc2)cc(OC)c1OC (stereo not given) | -2 | 3 | 10 | 10 | -12 | -19 | -2 | i
CCN1CCN(Cc2ccc(NC(=O)c3cc(NC(=O)c4ccno4)cc(OC)c3)cc2C(F)(F)F)CC1 | -3&1 | 1&2 | -4&3 | 28 | -11 | 9 | -18 | i
CC12CCC(=O)N1C(C(=O)Nc1ccccc1N1CCCCC1)CS2 (stereo not given) | -3 | -3 | -5 | . | . | -3 | . | .
Cc1ccc2c(c1)Sc1c(ccc3ccccc13)N2 | -3 | 1 | -31 | -244 | 11 | 39 | 14 | i
O=C1c2ccccc2C(=O)N1CCOCCN1C(=O)c2ccccc2C1=O | -2 | 1 | -12 | . | -2 | -18 | -7 | i
Nc1ccc(S(=O)(=O)c2ccc(N)c(N)c2)cc1 | -3 | 0 | . | -30 | 2 | -5 | -6 | i
O=C(CCCn1c(=O)[nH]c2ccccc2c1=O)NCCSCc1ccccc1 | 3 | 1 | 6 | 1 | -9 | -11 | -16 | i
O=C(NCc1cccs1)c1nc2ncccn2n1 | 3 | 5 | -17 | . | -1 | -8 | -9 | i
CCc1nnc(NC(=O)C2CCN(C(=O)c3ccccc3C)CC2)s1 | 0 | 1 | 18 | 18 | . | . | . | .
C[C@H]1CC[C@]2(O[C@@H](CCO)C[C@H](O)[C@H]2O)O1 | -1 | 3 | 2 | -2 | . | 4 | . | i
COc1ccc(-c2cc(C(=O)N3CCOCC3)c3cc(C)ccc3n2)cc1 | 4 | 12 | 2 | -65 | -4 | -15 | -7 | i
COc1cccc(N/C=C/C(=O)c2ccc(Br)cc2)c1 | 9 | 1 | -23 | . | . | -16 | . | i
Cc1cccc2c1ncc1c(=O)n(-c3ccccc3)[nH]c12 | 4 | 1 | . | -33 | 1 | -9 | 6 | i
COc1cccc(-n2c(SCC(=O)NC3CC3)nc3ccccc3c2=O)c1 | -13 | 9 | -11 | 0 | . | . | . | .
CCOC(=O)C1CCN(c2ncnc3c2c(-c2ccccc2)cn3-c2ccc(C)cc2)CC1 | -6 | -12 | 0 | -6 | 4 | 46 | 0 | i
CN(C)C(=O)CCC(=O)N1CCCC(C(=O)c2ccc(C(F)(F)F)cc2)C1 (stereo not given) | -2 | -3 | -7 | 6 | -6 | -1 | 4 | i
Additional compounds follow.
SMILES | MT1-MMP act inh | MT1-MMP act inh RFP | Yeast UUG start | Env fusion inh | eIF4H FP inh | CSC inhib | PABP polyA inh | Rce1 inhib | others
CC1CCN(S(=O)(=O)CCNC(=O)c2ccc(F)cc2)CC1 | -1 | -1 | -9 | 6 | . | . | . | i
Cc1cc[n+](-c2[nH]c(=O)sc2/C=N/NC([S-])=Nc2ccccc2)cc1 | -59 | -6 | . | 3 | ? | -19 | 9 | i
COC(=O)c1cc2sc(Cl)cc2n1Cc1nc(-c2ccccc2)oc1C | 0 | -4 | -2 | 20 | 0 | 5 | 4 | i
CC(C)(C)NC(=O)CN(C(=O)CNS(=O)(=O)c1ccccc1)c1ccc2c(c1)OCCO2 | -3 | -2 | -20 | 15 | -8 | 1 | -10 | i
CN1/C(=C/C2CC(=O)N(c3cccc4ccccc34)C2=O)C(C)(C)c2ccccc21 (stereo not given) | -10 | 8 | -16 | 26 | -8 | . | 9 | i
O=C(Nc1ccccc1N1CCCCC1)c1ncoc1-c1ccc(F)cc1 | -4 | -1 | 4 | . | 0 | -17 | -4 | i
O=C1NC(=O)c2cc([N+](=O)[O-])cc3cccc1c23 | -55 | 3 | -16 | -76 | 8 | . | 11 | i
COc1cccc(CC(=O)Nc2ccc3nc(C)sc3c2)c1 | 2 | -1 | . | -10 | -6 | -3 | 12 | i
Cc1cccc(N(CC(=O)NCC2CCCO2)C(=O)CCC(=O)Nc2nccs2)c1 (stereo not given) | 0 | 4 | -15 | -13 | -9 | -13 | 6 | i
COc1ccc(NS(=O)(=O)c2cccc(C(=O)N(C)Cc3ccc(SC)cc3)c2)cc1 | -1 | -4 | 10 | 11 | . | 2 | . | i
COc1cc(C(=O)Nc2cc(C(F)(F)F)ccc2N2CCOCC2)ccc1OCC(=O)N1CCOCC1 | 0 | 2 | . | . | . | -17 | . | i
